# From PubChem
# PAD4 inh: blocks human protein arginine deiminase 4; 330,000 tested, 0.41% active; inhibition, % at 6.36 µM; recombinant PAD4, RCA probe fluorescence polarization;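 active means percent inhibition above a cutoff equal to the mean of all tested compounds plus 3 SD, cut at about 15% in these data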;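 further: 0% = PAD4 with RCA probe and DMSO and 100% = probe without PAD4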
# PAFAH1B2 FP inh: inhibitors of human PAFAH1B2 | P68402 | recombinant PAFAH1B2, FP-rhodamine activity probe, fluorescence polarization | inhibition, % at 3.39 µM | 340,000 tested, 1.2% active;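 active means inhibition above the mean of all tested compounds plus 3 SD, cut at about 24% in these data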;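 further: 0% = enzyme with DMSO and 100% = wells lacking PAFAH1B2; many of its hits are not listed in these tables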
# LYPLA2 inh: LYPLA2 (human) inhibition in PME1 counter-screen; inhibition, % at 5.9 µM; recombinant LYPLA2, FP-Rh probe fluorescence polarization; 320,000 tested, 0.38% active;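 active means inhibition above the screen-wide mean plus 3 SD, limit set per campaign, cut at about 26% in these data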;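 further: 0% = LYPLA2 with DMSO and 100% = wells lacking LYPLA2 enzyme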
# Target sequence (O95372 whole entry, looked up): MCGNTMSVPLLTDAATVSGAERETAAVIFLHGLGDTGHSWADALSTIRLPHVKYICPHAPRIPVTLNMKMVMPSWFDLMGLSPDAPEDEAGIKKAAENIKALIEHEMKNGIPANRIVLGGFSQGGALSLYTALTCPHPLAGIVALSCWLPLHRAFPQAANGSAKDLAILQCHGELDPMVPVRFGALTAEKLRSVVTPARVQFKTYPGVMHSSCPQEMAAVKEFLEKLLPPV
# LYPLA1 counter: blocks human lysophospholipase 1, a PME1 counter-screen; O75608; recombinant LYPLA1, FP-Rh probe fluorescence polarization; inhibition, % at 5.9 µM; 320,000 tested, 0.16% active;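 active means inhibition above the mean of all tested compounds plus 3 SD, set per campaign, cut at about 14% in these data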;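 further: inhibitors block serine hydrolase probe labeling of LYPLA1 so polarization falls; 0% = enzyme with DMSO and 100% = wells lacking LYPLA1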
# Target sequence (O75608 whole entry, looked up): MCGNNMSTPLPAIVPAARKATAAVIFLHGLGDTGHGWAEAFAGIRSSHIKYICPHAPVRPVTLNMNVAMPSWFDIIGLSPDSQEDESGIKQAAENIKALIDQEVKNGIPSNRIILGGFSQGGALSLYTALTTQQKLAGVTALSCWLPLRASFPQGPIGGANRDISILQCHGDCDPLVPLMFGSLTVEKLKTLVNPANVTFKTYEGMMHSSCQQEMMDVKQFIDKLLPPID
# PAFAH2 FP inh: inhibitors of human PAFAH2. recombinant PAFAH2, FP-rhodamine activity probe, fluorescence polarization. Q99487. inhibition, % at 3.39 µM. 340,000 tested, 0.99% active;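 active means inhibition above the mean over all tested compounds plus 3 SD, cut at about 30% in these data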;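 further: inhibitors block probe labeling of enzyme so polarization drops; 0% = enzyme with DMSO and 100% = wells lacking PAFAH2 protein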
# pPAFAH inh: inhibitors of human plasma PAF acetylhydrolase (pPAFAH); Q13093; 330,000 tested, 1.5% active; recombinant pPAFAH, FP-rhodamine probe fluorescence polarization; AID 463082; inhibition, % at 3.39 µM;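 active means inhibition above the mean inhibition across the screen plus 3 SD, cut at about 25% in these data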;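 further: inhibitors block binding of the rhodamine activity-based probe so polarization drops; 0% = enzyme with DMSO and 100% = wells lacking pPAFAH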
# Target sequence (Q13093 whole entry, looked up): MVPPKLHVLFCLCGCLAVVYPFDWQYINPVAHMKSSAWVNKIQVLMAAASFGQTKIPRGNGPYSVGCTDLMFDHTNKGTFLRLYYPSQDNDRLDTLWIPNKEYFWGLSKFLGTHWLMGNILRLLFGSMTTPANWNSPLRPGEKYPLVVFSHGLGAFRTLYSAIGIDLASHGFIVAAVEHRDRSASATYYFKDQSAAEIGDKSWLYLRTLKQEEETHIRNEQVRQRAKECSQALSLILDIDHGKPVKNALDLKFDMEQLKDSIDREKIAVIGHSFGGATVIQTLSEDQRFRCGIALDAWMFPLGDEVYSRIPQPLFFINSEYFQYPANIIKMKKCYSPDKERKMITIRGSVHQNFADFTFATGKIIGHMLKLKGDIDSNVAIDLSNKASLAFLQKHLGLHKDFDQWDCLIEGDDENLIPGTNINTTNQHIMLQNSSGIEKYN
# PME-1 primary: PME-1 (human) inhibition | recombinant PME-1, FP-Rh probe fluorescence polarization | AID 2130 | 320,000 tested, 0.53% active | inhibition, % at 5.9 µM | Q9Y570;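 active means inhibition above the campaign mean of all compounds plus 3 SD, cut at about 26% in these data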;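 further: competitive labeling of PME-1 active site by serine hydrolase directed probe; 0% = PME-1 with DMSO and 100% = wells lacking PME-1 enzyme; inhibitors block probe labeling so polarization falls and inhibition rises; many of its hits are not listed in these tables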
# PAFAH1B3 FP inh: inhibitors of human PAFAH1B3. Q15102. inhibition, % at 3.39 µM. 340,000 tested, 0.28% active. AID 492972. recombinant PAFAH1B3, FP-rhodamine probe, fluorescence polarization;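 active means inhibition above the screen-wide average of all tested compounds plus 3 SD, cut at about 25% in these data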;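 further: 0% = enzyme with DMSO only and 100% = wells lacking PAFAH1B3 protein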
# * = called active by the depositor; . = not tested or not shown. This is a subset; count on the stated rates, not on these rows.
# Order of results – PAD4 inh	PAFAH1B2 FP inh	LYPLA2 inh	LYPLA1 counter	PAFAH2 FP inh	pPAFAH inh	PME-1 primary	PAFAH1B3 FP inh
[1] Cc1nc(SCC(=O)c2c[nH]c3ccccc23)n[nH]1
    -2	2	2	0	-1	0	6	-2
[2] COc1ccccc1CCNC(=O)c1cc(COc2cccc(C(F)(F)F)c2)on1
    -3	2	-6	-1	-4	1	-6	-4
[3] CCCCC(CCCCl)C(=O)Nc1ccccc1 (stereo unspecified)
    -1	3	-1	-1	1	2	2	7
[4] CCCC(NC(=O)CCl)c1ccccc1 (stereo unspecified)
    0	1	-10	-1	-2	-3	-3	4
[5] O=C(Cc1nc(-c2ccc(Br)s2)cs1)NCCN1CCOCC1
    -2	2	-1	-4	-4	1	-10	1
[6] CC(C)(C)C(=O)Nc1nc2c(s1)COc1ccccc1-2
    -3	7	-4	1	-6	4	-1	1
[7] O=C(O)c1cccc(NC(CNS(=O)(=O)c2ccc(Cl)cc2)c2ccccc2)c1 (stereo unspecified)
    -2	75*	7	-1	18	26*	2	11
[8] COc1ccc2c(C(=O)CCl)c[nH]c2c1
    -7	3	-1	-1	-1	0	-3	-1
[9] CCC(=O)Nc1cccc(-n2nnnc2SCC(=O)c2ccc(C)c(C)c2)c1
    -11	1	-13	-10	-2	2	-23	-3
[10] O=c1[nH]c(CN2CCCCC2)nc2ccccc12
    2	6	-9	-2	6	3	-3	1
[11] CCN(CC)S(=O)(=O)c1ccc2nnn(OCC(=O)Nc3cccc(C#N)c3)c2c1
    -2	4	-1	0	-9	2	7	-4
[12] Cc1ccccc1Nc1nc(N)nc(CCl)n1
    0	8	-2	0	-2	2	0	2
[13] COc1ccc(CC(=O)c2c(O)cc(O)cc2O)cc1OC
    -2	1	-2	-4	-7	25*	-4	4
[14] C/C(=N\Nc1ccc(S(=O)(=O)N2CCOCC2)cc1[N+](=O)[O-])C(C)C
    -6	8	5	1	-2	1	9	11
[15] CC1(N2CCOCC2)CC2(O)C(=[N+]1[O-])CCc1c2no[n+]1[O-] (stereo unspecified)
    -4	5	6	2	5	14	9	12
[16] COc1ccc(Nc2oc(-c3ccc(Cl)cc3)nc2C#N)cc1
    -3	0	-4	-3	-3	-1	-3	-1
[17] ClCc1ncc(-c2ccc(Cl)cc2)o1
    1	3	0	-1	0	-1	-1	5
[18] CC(C)c1onc(C(=O)Nc2cccc(Cl)c2)c1[N+](=O)[O-]
    4	-3	-1	-4	2	-4	6	2
[19] O=C1C(Cl)=C(N2CCCCCC2)C(=O)N1c1ccc(Cl)cc1
    -4	4	-5	0	2	0	-2	8
[20] COCCNC(=O)c1c(N)n(-c2cccc(C)c2)c2nc3ccccc3nc12
    2	-4	2	1	-1	11	6	-2
[21] COc1ccc(NS(=O)(=O)c2cc(OCC(N)=O)c(C)cc2Cl)cc1
    -3	6	-3	1	2	-2	4	8
[22] O=C(Nc1nc(-c2ccccn2)cs1)c1ncc(Cl)c(Cl)c1Cl
    -1	5	-3	-4	9	8	4	9
[23] COC(=O)c1ccccc1N(C)S(C)(=O)=O
    -3	3	4	4	1	-3	-1	-7
[24] CCOC(=O)C1=C(C)NC(=O)NC1c1c(C)nn(-c2ccccc2)c1Cl (stereo unspecified)
    0	4	2	1	5	3	2	9
[25] COc1cccc2cc3c(=O)n(-c4ccccc4)nc-3oc12
    -4	8	1	-2	0	2	0	11
[26] C=CCC1NS(=O)(=O)OCC1NC(=O)OCC(Cl)(Cl)Cl (stereo unspecified)
    4	7	1	0	3	-6	2	0
[27] CCOC(=O)C1=C(N)OC(CCl)=C(C#N)C1c1ccsc1 (stereo unspecified)
    -5	4	-5	0	-1	-5	-11	16
[28] CC1=C(C)C(OCCBr)N(c2cc(O)c(Cl)cc2F)C1=O (stereo unspecified)
    -2	6	2	5	10	-1	-5	8
[29] Cc1cc(C(=O)CCl)c(C)n1CCc1ccc(F)cc1
    1	11	-9	1	5	8	6	3
[30] Cc1ccc(Nc2nc(N)nc(CSc3nc4ccccc4s3)n2)cc1
    -5	-6	-37	-20	-9	-3	-45	-8

# The list goes on:
# Order of results – PAD4 inh	PAFAH1B2 FP inh	LYPLA2 inh	LYPLA1 counter	PAFAH2 FP inh	pPAFAH inh	PME-1 primary	PAFAH1B3 FP inh
[31] O=C(O)c1ccc2c(=O)[nH]c(CN3CCOCC3)nc2c1
    -5	-2	3	0	19	0	-6	1
[32] O=S(=O)(c1ccccc1)N1CCC2(CC1)CO2
    0	5	7	0	15	-5	-3	1
[33] COc1cc(C(=O)NCc2nnc(SCC(=O)c3ccc(Cl)cc3)o2)cc(OC)c1OC
    -3	6	-6	-4	4	5	-1	2
[34] CCc1cc(C(=O)c2ccc(C)cc2)c(NC(=O)CCl)s1
    8	2	-2	-4	5	4	-1	-1
[35] CC(OC(=O)CCc1c[nH]c2ccccc12)C(=O)c1ccccc1 (stereo unspecified)
    1	5	4	2	-2	7	4	4
[36] Cc1cc(C)nc(SCC(=O)Nc2ccccc2[N+](=O)[O-])n1
    -1	0	4	0	12	0	2	7
[37] CCCC[C@H]1COCCS(=O)(=O)N1Cc1ccc(C)cc1
    0	13	-2	3	1	4	3	7
[38] Cc1ccc2nc(SCC(=O)Nc3nnc(SCC(N)=O)s3)[nH]c2c1
    -6	5	-6	-3	-2	1	-14	1
[39] CCOC(=O)c1cc(CC)sc1NC(=O)c1cccc(N2C(=O)CCC2=O)c1
    0	3	-5	-6	7	8	3	3
[40] CC(CNS(=O)(=O)c1ccc2c(c1)NC(=O)CCS2)c1ccccc1 (stereo unspecified)
    -2	39*	-2	-1	-2	27*	6	0
[41] CON(c1nc(Cl)nc(N(C)C)n1)S(=O)(=O)c1ccccc1Cl
    5	1	13	6	5	-1	5	7
[42] O=C(CSc1nnc(-c2cnccn2)n1Cc1ccco1)c1ccc(Cl)c(Cl)c1
    0	5	7	-3	9	13	-1	-1
[43] CCOC(=O)C1CCN(C(=O)/C=C/c2ccc(OC)cc2)CC1
    -1	-4	-5	-1	3	2	0	11
[44] O=C1CC(c2ccccc2Cl)c2c(sc3c(=O)[nH]c(CCl)nc23)N1 (stereo unspecified)
    4	.	15	9	.	2	4	.
[45] Cc1ccc(NC(=O)COC(=O)C(NS(=O)(=O)c2ccc(Cl)cc2)C(C)O)c(Br)c1 (stereo unspecified)
    1	-2	-2	-4	-1	-1	2	11
[46] CCn1c(SCC(=O)c2ccc(NS(=O)(=O)c3ccccc3)cc2)nnc1-c1cccs1
    -2	-3	7	-1	5	22	2	10
[47] N#Cc1nc(COc2ccccc2F)oc1NCc1ccc(F)cc1
    4	9	-2	-4	-4	0	6	0
[48] Cc1cc2[nH]c(=O)c(=O)[nH]c2cc1S(=O)(=O)NCc1ccccc1
    -6	2	5	1	1	6	3	6
[49] Cc1ccc(NS(=O)(=O)c2ccc3c(c2)NC(=O)C(C)C(=O)N3)cc1C (stereo unspecified)
    -1	7	3	0	5	9	-1	-1
[50] Cc1cc(=O)[nH]c(SCC(=O)Nc2nnc(CC(C)C)s2)n1
    -11	1	3	3	-1	0	3	-3
[51] CCc1nnc(NC(=O)CSc2nc3ccccc3o2)s1
    -4	-42	-4	0	-7	2	-3	-3
[52] CCOC(=O)C1CCN(C(=O)c2ccc(NS(=O)(=O)c3ccc(F)cc3C)cc2)CC1
    -1	4	5	-3	-4	0	-2	8
[53] O=C(CSc1nnc(-c2ccncc2)o1)Nc1nncs1
    -4	3	-2	0	1	2	-3	4
[54] Cc1cccc(Nc2nc(N)nc(CCl)n2)c1
    3	8	3	0	2	-2	2	6
[55] CC(C)CCC1CC(CSC(=N)N)OC1=O (stereo unspecified)
    4	4	-7	-7	7	-3	6	8
[56] CC(C)(CNC(=O)c1ccc([N+](=O)[O-])c(Cl)c1)CNC(=O)c1ccc([N+](=O)[O-])c(Cl)c1
    -4	7	-4	-5	-4	2	4	-5
[57] Cc1ccc(Nc2nc(N)nc(CSc3ncccn3)n2)cc1
    -1	6	6	-2	7	3	-5	-3
[58] Cc1ccc(/C=C/S(=O)(=O)NCC(=O)OCC(=O)Nc2c(F)cccc2F)cc1
    2	-1	1	0	-1	11	-7	-3
[59] O=C(c1ccccc1)c1nn(-c2ccccc2)c(=O)cc1C(F)(F)F
    0	3	6	-1	-2	1	4	7
[60] BrCCOCCOc1ccc2ccccc2c1
    2	2	5	4	-2	3	4	8

# Following part:
# Order of results – PAD4 inh	PAFAH1B2 FP inh	LYPLA2 inh	LYPLA1 counter	PAFAH2 FP inh	pPAFAH inh	PME-1 primary	PAFAH1B3 FP inh
[61] CCn1nc([N+](=O)[O-])c(C(C#N)c2nc3ccccc3n2C)c(Cl)c1=O (stereo unspecified)
    10	9	7	3	11	14	17	12
[62] CSc1nsc(SCC(=O)Nc2nncs2)n1
    -2	-6	-1	-4	1	4	-2	1
[63] COc1ccc(Nc2oc(COc3ccc(C)cc3)nc2C#N)cc1
    1	2	-1	-3	-2	14	11	6
[64] CCOC(=O)CSCC(NC(=O)OC(C)(C)C)C(=O)OCC (stereo unspecified)
    -1	6	-3	1	-5	1	2	6
[65] COc1ccc(C(=O)CSc2n[nH]c(C)n2)cc1[N+](=O)[O-]
    -1	.	7	-3	.	-5	-13	.
[66] Cc1cc2[nH]c(=O)c(=O)[nH]c2cc1S(=O)(=O)NC1CCC(C)CC1 (stereo unspecified)
    1	26*	2	-5	-3	0	1	-1
[67] COc1ccc(-c2ccc(SCC(=O)Nc3nnc(C)s3)nn2)cc1
    9	3	-6	-4	7	1	-2	4
[68] N#CC(c1ccccc1)N(CCCCl)C(=O)c1ccc(Br)cc1 (stereo unspecified)
    1	8	0	-3	1	5	3	3

# By substructure: those above containing an aryl methoxy group.
# Order of results – PAD4 inh	PAFAH1B2 FP inh	LYPLA2 inh	LYPLA1 counter	PAFAH2 FP inh	pPAFAH inh	PME-1 primary	PAFAH1B3 FP inh
[2] COc1ccccc1CCNC(=O)c1cc(COc2cccc(C(F)(F)F)c2)on1
    -3	2	-6	-1	-4	1	-6	-4
[8] COc1ccc2c(C(=O)CCl)c[nH]c2c1
    -7	3	-1	-1	-1	0	-3	-1
[13] COc1ccc(CC(=O)c2c(O)cc(O)cc2O)cc1OC
    -2	1	-2	-4	-7	25*	-4	4
[16] COc1ccc(Nc2oc(-c3ccc(Cl)cc3)nc2C#N)cc1
    -3	0	-4	-3	-3	-1	-3	-1
[21] COc1ccc(NS(=O)(=O)c2cc(OCC(N)=O)c(C)cc2Cl)cc1
    -3	6	-3	1	2	-2	4	8
[25] COc1cccc2cc3c(=O)n(-c4ccccc4)nc-3oc12
    -4	8	1	-2	0	2	0	11
[33] COc1cc(C(=O)NCc2nnc(SCC(=O)c3ccc(Cl)cc3)o2)cc(OC)c1OC
    -3	6	-6	-4	4	5	-1	2
[43] CCOC(=O)C1CCN(C(=O)/C=C/c2ccc(OC)cc2)CC1
    -1	-4	-5	-1	3	2	0	11
[63] COc1ccc(Nc2oc(COc3ccc(C)cc3)nc2C#N)cc1
    1	2	-1	-3	-2	14	11	6
[65] COc1ccc(C(=O)CSc2n[nH]c(C)n2)cc1[N+](=O)[O-]
    -1	.	7	-3	.	-5	-13	.
[67] COc1ccc(-c2ccc(SCC(=O)Nc3nnc(C)s3)nn2)cc1
    9	3	-6	-4	7	1	-2	4
